High-throughput results as filed in PubChem.
Prx2 Sm inh = Schistosoma mansoni Prx2 inhibition. Potency, µM. S. mansoni Prx2 activity coupled to TGR/GSH (TGR is thioredoxin glutathione reductase), NADPH fluorescence loss, qHTS; some inactives read as strong as hits. 65,000 compounds, 0.07% hits; active means full or partial inhibition curve with a strong effect at the top dose; inconclusive means weaker partial or single-point curve; inactive means no accepted curve; note: series up to 57 µM; many of its hits are not listed in these tables
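Enzyme mix: 100 uM NADPH, 25 nM TGR, 700 uM GSH, 50 nM Prx2 in 100 mM phosphate pH 7.4, 10 mM EDTA, 0.01% Tween-20. 15 min RT with compound; NADPH/GSH added, H2O2 starts reaction; NADPH fluorescence read 8 min.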
LT uptake inh = anthrax lethal toxin internalization inhibition. Cells, anthrax lethal toxin internalization, FRET ratio (460/530). Potency, µM (highest dose often 40 µM), without a hit: at the highest dose activity change, negative = inhibition, hits mostly inhibitors. 70,000 compounds, 0.67% hits. AID 912; active = well fitted falling ratio curve with the 530 nm signal flat; inconclusive = other ratio curves, or a change in one channel alone; inactive = flat curves in the ratio and both channels; the % refers to the ratio; note: % is set by controls: 0 for no effect and ±100 for the full control effect; nearly all actives have a fitted effect of over 50% in size; tested in ME-180 cells; beta-lactamase reporter
Starred values were filed as active, the others as inactive; [ ] = remark or other dose. Potency is the fitted concentration of half-maximal effect. Only part of the results is shown (hit frequency here may not be typical).

The first 3 records as a preview:
How did COc1ccc(C2CC(c3ccc(OC)cc3)n3nc(NC(=O)c4ccco4)nc3N2)cc1 (stereo not given) do in these assays?
Prx2 Sm inh: >57; LT uptake inh: -13%

What do the screens show for `Cc1ccccc1Br`?
LT uptake inh: -5%

What do the screens show for `O=C(Nc1ccccc1C(=O)OC1CCOC1=O)c1ccco1` (stereo not given)?
Prx2 Sm inh: >57; LT uptake inh: 4%

The listing, from the start:
How did COc1ccc(C2CC(c3ccc(OC)cc3)n3nc(NC(=O)c4ccco4)nc3N2)cc1 (stereo not given) do in these assays?
Prx2 Sm inh: >57; LT uptake inh: -13%

What do the screens show for `Cc1ccccc1Br`?
LT uptake inh: -5%

What do the screens show for `O=C(Nc1ccccc1C(=O)OC1CCOC1=O)c1ccco1` (stereo not given)?
Prx2 Sm inh: >57; LT uptake inh: 4%

How did N#Cc1cccc(NC(=O)N2CCC3(CC2)CCN(C(=O)c2ccco2)CC3)c1 do in these assays?
Prx2 Sm inh: >57; LT uptake inh: inconclusive

Results for C=COCCNC(=O)Nc1ccc(Cl)cc1Cl ?
Prx2 Sm inh: >57; LT uptake inh: -12%

What do the screens show for `COc1cc(C(=O)OCC(=O)c2c[nH]c3ccccc23)ccc1OCC(=O)N1CCOCC1`?
Prx2 Sm inh: >57; LT uptake inh: 12%

How did O=C(CSc1nnc(Cc2cc(=O)[nH]c(=O)[nH]2)n1-c1ccccc1)N1CCCC1 do in these assays?
Prx2 Sm inh: >57; LT uptake inh: 8%

How did O=C(c1ccco1)N1CCN(S(=O)(=O)c2ccc3c(c2)CCN3C(=O)C2CC2)CC1 do in these assays?
Prx2 Sm inh: >57; LT uptake inh: 9%

How did CN(C)C(=O)c1ccc(-c2cncnc2Nc2ccc(F)cc2)cc1 do in these assays?
Prx2 Sm inh: >57; LT uptake inh: 10%

How did Cc1ccc(S(=O)(=O)N2CCN(C(=O)CN3CCc4ccccc4C3)CC2)cc1 do in these assays?
Prx2 Sm inh: >57; LT uptake inh: 5%

What do the screens show for `CN(C)c1ccc(NC(=O)CN2CCC(C(=O)c3ccc(F)cc3)CC2)cc1`?
Prx2 Sm inh: >57; LT uptake inh: -15%

How did O=C(NCC(c1cccnc1)N1CCN(c2ccccc2F)CC1)OCc1ccccc1 (stereo not given) do in these assays?
Prx2 Sm inh: >57; LT uptake inh: -8%

What do the screens show for `Cc1ccc(-n2[nH]c(C)c(/C=N/c3ccccn3)c2=O)cc1`?
Prx2 Sm inh: >57; LT uptake inh: -8%

How did O=C(COC(=O)c1ccc(Br)o1)Nc1nc2ccccc2s1 do in these assays?
LT uptake inh: 0%

Results for COc1ccc(C(C)=O)cc1COC(=O)c1ccc2c(c1)OCO2 ?
Prx2 Sm inh: >57; LT uptake inh: -6%

How did NS(=O)(=O)c1cc2c(cc1Cl)N[C@H](Cc1ccccc1)NS2(=O)=O do in these assays?
Prx2 Sm inh: >57; LT uptake inh: 1%[8 µM]

How did O=C(NC1CC2CCCC(C1)N2CC(=O)N1CCCc2ccccc21)C1CCCCC1 (stereo not given) do in these assays?
Prx2 Sm inh: >57; LT uptake inh: -16%

How did CC(C)Oc1ccccc1C1CC(=O)Nc2cc3c(cc21)OCO3 (stereo not given) do in these assays?
Prx2 Sm inh: >57; LT uptake inh: inconclusive

What do the screens show for `CC(C)(C)n1ncc2c(=O)n(CC(=O)NCc3ccc(F)cc3)cnc21`?
Prx2 Sm inh: >57; LT uptake inh: inconclusive

What do the screens show for `CC12C(=O)N(c3nccs3)C(=O)C1C1C=CC2C1` (stereo not given)?
Prx2 Sm inh: >57; LT uptake inh: -1%

What do the screens show for `Cc1ccc2cc(CN(C(=O)c3cccnc3)C(C)C)c(=O)[nH]c2c1`?
Prx2 Sm inh: >57; LT uptake inh: 6%

How did COc1ccc(Oc2ncc3nc(-c4ccccc4)c(=O)n(C[C@H]4CCCO4)c3n2)cc1 do in these assays?
Prx2 Sm inh: >57; LT uptake inh: inconclusive

How did S=c1[nH]nc(C2COc3ccccc3O2)o1 (stereo not given) do in these assays?
Prx2 Sm inh: >57; LT uptake inh: -1%

Results for O=S(=O)(c1ccc2c(c1)OCCO2)N1CCC(c2nc3ccc(Cl)cc3[nH]2)CC1 ?
Prx2 Sm inh: >57; LT uptake inh: 13µM*

Results for Cc1cc2oc(=O)cc(Cn3ccnc3)c2cc1C ?
Prx2 Sm inh: >57; LT uptake inh: 0%

What do the screens show for `Cc1cc(C)c(C)c(S(=O)(=O)NCc2cccnc2)c1C`?
Prx2 Sm inh: >57; LT uptake inh: inconclusive

How did CCOC(=O)N/N=C1/C[C@@H](O)[C@@H](O)[C@@H]2[C@@H]3C(=O)N(CC)C(=O)[C@H]3CC[C@@H]12 do in these assays?
LT uptake inh: 0%[8 µM]

Results for COc1ccc(CC(=O)NC(C)c2nnc(SCc3nc4ccccc4c(=O)[nH]3)n2C)cc1 (stereo not given) ?
Prx2 Sm inh: >57; LT uptake inh: 1%

Results for C[C@H]1C2=C3C(CC[C@H]4C(OCc5ccc(F)cc5C(F)(F)F)OC[C@](C)([C@@H]34)N(C(=O)OC(C)(C)C)C2)C(CO)C1CO (stereo not given in full) ?
Prx2 Sm inh: >57; LT uptake inh: inconclusive

Results for COc1cccc(C2C(C(=O)OCc3ccccc3)=C(C)Nc3ncnn32)c1OC (stereo not given) ?
Prx2 Sm inh: >57; LT uptake inh: -4%

What do the screens show for `CSc1nsc(SCC(=O)N2CCN(c3ccccc3)CC2)n1`?
Prx2 Sm inh: >57; LT uptake inh: 3%

Results for Cc1ccc(S(=O)(=O)N2CCOCC2)cc1C(=O)O ?
Prx2 Sm inh: >57; LT uptake inh: -10%

Results for COC(=O)c1ccc(C(/C=C/[C@@H](C)C(=O)N(C)Cc2ccccc2)NC(=O)OCc2ccccc2)cc1 (stereo not given in full) ?
LT uptake inh: -5%

What do the screens show for `Cc1cccc(OCc2nnc(SCC(=O)Nc3cc(C)on3)n2C)c1`?
Prx2 Sm inh: >57; LT uptake inh: 2%

Results for CCNc1ncc2nc(-c3cccs3)c(=O)n(C)c2n1 ?
Prx2 Sm inh: >57; LT uptake inh: inconclusive

What do the screens show for `O=C(CN1CCCN(Cc2ccc(F)cc2Cl)C1=O)NCc1ccccc1`?
Prx2 Sm inh: >57; LT uptake inh: -4%

Part of the list above in order of molecular weight, falling.
Results for COC(=O)c1ccc(C(/C=C/[C@@H](C)C(=O)N(C)Cc2ccccc2)NC(=O)OCc2ccccc2)cc1 (stereo not given in full) ?
LT uptake inh: -5%

Results for COc1ccc(CC(=O)NC(C)c2nnc(SCc3nc4ccccc4c(=O)[nH]3)n2C)cc1 (stereo not given) ?
Prx2 Sm inh: >57; LT uptake inh: 1%

Results for COc1cccc(C2C(C(=O)OCc3ccccc3)=C(C)Nc3ncnn32)c1OC (stereo not given) ?
Prx2 Sm inh: >57; LT uptake inh: -4%

What do the screens show for `Cc1cccc(OCc2nnc(SCC(=O)Nc3cc(C)on3)n2C)c1`?
Prx2 Sm inh: >57; LT uptake inh: 2%

Following part:
What do the screens show for `COc1ccc(-c2cc(C(F)(F)F)nc(SCCC(=O)Nc3cc(C)on3)n2)cc1`?
Prx2 Sm inh: >57; LT uptake inh: -7%

What do the screens show for `N#CCCn1ncn(-c2ccccc2)c1=S`?
Prx2 Sm inh: >57; LT uptake inh: 1%

What do the screens show for `COC(=O)c1sc(NC(=O)c2cc3c(s2)CCCC3)nc1C`?
Prx2 Sm inh: >57; LT uptake inh: 3%

Results for O=C(Nc1cccc(F)c1)N1CCCC2(CCN(S(=O)(=O)c3ccccc3)CC2)C1 ?
Prx2 Sm inh: >57; LT uptake inh: inconclusive

Results for ClCC(Cl)CCl ?
LT uptake inh: 0%

How did CCOc1cc2[nH]c(=O)n(CCCCC(=O)N3CCCCCC3)c(=O)c2cc1OCC do in these assays?
Prx2 Sm inh: >57; LT uptake inh: 10%

What do the screens show for `CCOC(=O)CN1CC23C=CC(O2)C(C(=O)NCc2ccc(F)cc2)C3C1=O` (stereo not given)?
Prx2 Sm inh: >57; LT uptake inh: 1%

What do the screens show for `CCCCC(=O)Nc1cc(N(C)C)nc2ccccc12`?
Prx2 Sm inh: >57; LT uptake inh: -3%

Results for CC(=O)c1ccc(C2C=CC(Oc3ccc(F)cc3C)C(CO)O2)cc1 (stereo not given) ?
LT uptake inh: -16%[8 µM]

How did COc1ccccc1OCC(O)Cn1nc(C)cc1C (stereo not given) do in these assays?
Prx2 Sm inh: >57; LT uptake inh: -4%

What do the screens show for `COc1ccc(C2=[N+]([O-])C(C)(C)N(O)C2(C)C)cc1`?
Prx2 Sm inh: >57; LT uptake inh: -2%

How did Oc1ccc(CNc2ccccc2F)c2cccnc12 do in these assays?
Prx2 Sm inh: inconclusive; LT uptake inh: -8%

What do the screens show for `O=C(NCc1ccc2c(c1)OCO2)c1ccncc1`?
LT uptake inh: -19%

What do the screens show for `CCC(Sc1nc(C)cc(=O)[nH]1)C(=O)Nc1nnc(C)s1` (stereo not given)?
Prx2 Sm inh: >57; LT uptake inh: 3%

How did CCC1(c2cccc(Cl)c2)NC(=O)N(Cc2cc(C(=O)OC)c(C)o2)C1=O (stereo not given) do in these assays?
Prx2 Sm inh: >57; LT uptake inh: -29%

How did CC(=O)c1cccc(NC(=O)C2CCN(S(=O)(=O)c3ccc(F)cc3)CC2)c1 do in these assays?
LT uptake inh: -15%

What do the screens show for `COC(=O)[C@@]1(Cc2ccc(F)cc2)[C@H]2c3cc(C(=O)N(C)C)n(Cc4ccc(C)o4)c3C[C@H]2CN1C(=O)c1ccccc1`?
Prx2 Sm inh: >57; LT uptake inh: inconclusive

Results for CC(Sc1nc(N2CCOCC2)nc(N2CCOCC2)n1)C(=O)Nc1ccccc1 (stereo not given) ?
Prx2 Sm inh: >57; LT uptake inh: 3%

What do the screens show for `O=C(Nc1ccc(N2CCCCC2)cc1)c1ccc(F)cc1`?
Prx2 Sm inh: >57; LT uptake inh: -17%

How did NC(=O)c1c(N)sc2c1CCCC2 do in these assays?
Prx2 Sm inh: >57; LT uptake inh: -16%

How did CCCN(C(=O)Cc1nc(N)n[nH]1)C1(C(=O)Nc2c(C)cccc2C)CCCCC1 do in these assays?
Prx2 Sm inh: >57; LT uptake inh: 9%

How did CC1(C)Cc2nc3sc4c(SCC(=O)NCc5ccco5)ncnc4c3cc2CO1 do in these assays?
Prx2 Sm inh: >57; LT uptake inh: -9%

Results for CCOC(=O)CCSc1nc2c(c(C(F)(F)F)c1C#N)CCC2 ?
Prx2 Sm inh: >57; LT uptake inh: inconclusive

What do the screens show for `O=c1c(-c2ccccc2)nc2cnc(Nc3ccccc3)nc2n1C[C@H]1CCCO1`?
Prx2 Sm inh: >57; LT uptake inh: inconclusive

What do the screens show for `CCn1c(SCC(=O)Nc2cc(C)on2)nc2sc3c(c2c1=O)CCCC3`?
Prx2 Sm inh: >57; LT uptake inh: -5%

Results for CC(NC(=O)c1ccc(Cl)cc1)C(=O)NC1=NCCS1 (stereo not given) ?
Prx2 Sm inh: >57; LT uptake inh: -6%

How did CCN(CC)C(=O)N1CCC(NC(=O)c2ccc(C(C)(C)C)cc2)CC1 do in these assays?
Prx2 Sm inh: >57; LT uptake inh: -6%

What do the screens show for `Cn1cc(Br)c(C(=O)NC2CCCCC2)n1`?
Prx2 Sm inh: >57; LT uptake inh: -5%

How did CCOC(=O)c1c(C)oc2c1c(C(c1ccncc1)N1CCOCC1)c(O)c1ccccc12 (stereo not given) do in these assays?
Prx2 Sm inh: >57; LT uptake inh: inconclusive

What do the screens show for `Nc1c(OCC(=O)O)ccc2cc(S(=O)(=O)O)ccc12`?
Prx2 Sm inh: >57; LT uptake inh: inconclusive

How did CC(C)(C)c1ccc(-c2nnc(SCc3ccc(Cl)cc3)n2-c2cccc(C(F)(F)F)c2)cc1 do in these assays?
Prx2 Sm inh: >57; LT uptake inh: inconclusive

What do the screens show for `O=c1[nH]c(SCc2cc(=O)n3ccccc3n2)nc2c1CCC2`?
Prx2 Sm inh: >57; LT uptake inh: 6%

What do the screens show for `CCOC(=O)c1cnn2c(C(F)F)cc(C3CC3)nc12`?
Prx2 Sm inh: >57; LT uptake inh: -2%

What do the screens show for `CCOc1ccccc1OCC(=O)O`?
Prx2 Sm inh: >57; LT uptake inh: -11%

What do the screens show for `CCCn1c(C)nc2c(NC3CCCCC3)nc(C)nc21`?
LT uptake inh: 4%

Results for c1cnc(N2CC3(CCNCC3)C2)nc1 ?
Prx2 Sm inh: >57; LT uptake inh: -7%

Results for CCCCOC(=O)CSc1nnc(-c2ccc(Cl)cc2Cl)o1 ?
Prx2 Sm inh: >57; LT uptake inh: -22%

Results for c1ccc(Nc2ncnc3ccc(-c4cccnc4)cc23)cc1 ?
Prx2 Sm inh: >57; LT uptake inh: -18%

Results for O=C(NCc1ccc(F)cc1)C1CC(=O)N(CCc2ccccc2)C1 (stereo not given) ?
Prx2 Sm inh: >57; LT uptake inh: -2%

What do the screens show for `O=C1CCC2CCCCC2(O)O1` (stereo not given)?
Prx2 Sm inh: >57; LT uptake inh: 16%

What do the screens show for `COC(=O)N1CCC2(CCN(Cc3ccc(C#N)cc3)CC2)CC1`?
Prx2 Sm inh: >57; LT uptake inh: inconclusive

How did COc1ncc2nc(-c3ccc(F)cc3)c(=O)n(Cc3ccc(F)cc3)c2n1 do in these assays?
Prx2 Sm inh: >57; LT uptake inh: -22%

Results for CCOC(=O)CC(=O)CSc1nc2ccc(C)cc2cc1C#N ?
Prx2 Sm inh: >57; LT uptake inh: inconclusive
